High-throughput results: PubChem BioAssay, Johns Hopkins Ion Channel Center
KCNQ2 block = KCNQ2 potassium channel inhibitors, primary screen, cell-based, CHO-K1, FluxOR thallium flux, B-score (AID 2156). Potassium voltage-gated channel subfamily KQT member 2 (Rattus norvegicus), O88943. hit rate 1.1% among 310,000. B-score at 10 µM. 20 min; stronger effect = lower value; only compounds with negative scores are shown here; some inactives read as strong as hits;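 active = fluorescence ratio B-score at most minus 3 library SDs, with starting brightness B-score within 2 library SDs, cut at about -5.5 in these data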
Target sequence (O88943 whole entry, looked up): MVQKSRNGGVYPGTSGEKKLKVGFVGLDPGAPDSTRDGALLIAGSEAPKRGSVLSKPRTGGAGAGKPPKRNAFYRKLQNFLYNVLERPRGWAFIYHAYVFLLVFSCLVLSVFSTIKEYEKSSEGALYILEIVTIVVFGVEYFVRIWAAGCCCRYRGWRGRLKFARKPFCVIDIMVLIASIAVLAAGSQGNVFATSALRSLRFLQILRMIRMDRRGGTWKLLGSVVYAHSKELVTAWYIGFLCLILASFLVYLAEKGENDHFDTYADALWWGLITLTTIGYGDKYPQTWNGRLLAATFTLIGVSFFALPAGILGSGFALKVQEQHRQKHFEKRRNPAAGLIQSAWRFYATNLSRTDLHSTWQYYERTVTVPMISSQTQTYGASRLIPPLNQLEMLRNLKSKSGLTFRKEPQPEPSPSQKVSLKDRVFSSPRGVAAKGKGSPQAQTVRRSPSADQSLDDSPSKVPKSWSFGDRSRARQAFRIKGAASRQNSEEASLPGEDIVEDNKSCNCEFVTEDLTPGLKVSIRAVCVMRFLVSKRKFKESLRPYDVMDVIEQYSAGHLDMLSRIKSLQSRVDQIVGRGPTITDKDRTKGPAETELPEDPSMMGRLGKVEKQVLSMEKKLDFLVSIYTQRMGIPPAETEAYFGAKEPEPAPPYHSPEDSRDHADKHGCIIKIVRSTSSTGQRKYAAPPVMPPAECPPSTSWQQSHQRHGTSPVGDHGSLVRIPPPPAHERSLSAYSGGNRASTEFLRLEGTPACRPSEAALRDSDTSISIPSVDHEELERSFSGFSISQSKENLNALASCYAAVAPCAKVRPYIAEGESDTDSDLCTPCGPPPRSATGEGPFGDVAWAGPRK
KCNQ2 block baseline = also measured in KCNQ2 block; calls as there; B-score; measured here: initial fluorescence intensity artifact check;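 brightness before thallium and not channel activity; 0 = typical well and far values either way flag optical interference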
* hit, by the source's call; i = inactive; & = joins results of further samples. Not all compounds are listed; the hit share may differ from the screen's.

Compound,KCNQ2 block,KCNQ2 block baseline
O=C(CCN1c2ccccc2Sc2ccccc21)OCc1nnc(-c2ccccc2)o1,i,3
CC(C)c1ccc(NC2CCCN(C(=O)c3n[nH]c4c3CCC4)C2)cc1 (stereo unspecified),i,-1.2
Cc1ccc(Nc2cc(C)nc3ncnn23)cc1,i,0.02
CC1CN(c2cc(=O)n(-c3ccccc3)c(=O)[nH]2)CC(C)O1 (stereo unspecified),i,0.6
COc1ccc(S(=O)(=O)n2nc(C)c(S(=O)(=O)N3CCOCC3)c2C)cc1,i,-0.63
Cc1nc(CN2CCN(C(=O)c3ccc(C(C)(C)C)cc3)CC2)cs1,i,-0.87
Cc1nc2nc[nH]n2c(=O)c1NC(=O)CC12CC3CC(CC(C3)C1)C2,i,1.2&0.18
COc1ccccc1NC(=S)NC(=O)/C=C/c1ccco1,i,-1.5
O=C1[C@H]2[C@@H](c3ccc(F)cc3)N3C(=O)N(c4cccc(F)c4)C(=O)[C@@]3(Cc3ccccc3)[C@H]2C(=O)N1C1CCCCC1,i,0.03
COc1ccc(C2C(C(=O)Nc3ccccc3)=C(C)N=C3SCC(=O)N32)cc1 (stereo unspecified),i,-0.77
Cc1cc(C)c(S(=O)(=O)N2CC=C(c3ccccc3)CC2)c(C)c1,i,-0.14
COCCCNc1nc(CC(C)C)nc2c1nnn2Cc1ccccc1,i,-0.68
COc1ccccc1CCNS(=O)(=O)c1cn(C)nc1C,i,0.63
Cc1nc2nc3c(c(=O)n2[nH]1)CCC3,i,0.38
CN(C)c1cc[n+](Cc2ccccc2)cc1,i,-0.44
COc1ccc(-c2[nH]c(-c3ccc4c(c3)OCO4)nc2-c2ccccc2)cc1,i,0.31
CC1C/C(=N/O)C(C)CN1 (stereo unspecified),i,-1.7
CCOC(=O)c1c(C)c(C)n(Cc2ccc(OC)c(OC)c2)c1C,i,-0.27
O=C(NC(c1ccccc1)c1ccccc1)C1CCCN(S(=O)(=O)c2cnc[nH]2)C1 (stereo unspecified),i,-0.77
CCOC(=O)c1cn(CC#N)c2cc(F)c(F)cc2c1=O,i,0.26
CCN(CC)CC(O)Cn1c(C)c(-c2ccccc2)c2cc([N+](=O)[O-])ccc21 (stereo unspecified),i,0.98
Cc1ccn2c(-c3csc(NCc4ccccc4)n3)c(C)nc2c1,i,-2
CCC(C)Sc1nc(O)c(Cc2ccccc2)c(=O)[nH]1 (stereo unspecified),i,-0.86
CC(=O)n1cc([C@@H]2C=C(C(=O)NCc3ccccc3)O[C@H](OCCCCO)C2)c2ccccc21,i,-1
Oc1ccc(/C=N/Nc2nc(-c3ccc(Cl)cc3)cc(C(F)(F)F)n2)cc1,i,-1
C[C@H]1CCC[C@]2(C)C[C@H]3OC(=O)C(CN4CCCCCC4)[C@H]3C=C12 (stereo partly specified),i,0.7
CCN(CC)c1ccc(C2C3CCCCC3(O)CCN2CC(=O)Nc2ccccc2)cc1 (stereo unspecified),i,-1.8
Cc1cccc2c3nc4ccccc4nc3n(C)c12,i,-0.25
CCOC(=O)C1(Cc2cccc(OC)c2)CCN(Cc2ccccc2)CC1,i,-1.5
Cc1ccc(C)c(NC(=O)Nc2ccc3c(c2)OCO3)c1,i,0.07
CC1CN(c2cc(=O)n(Cc3ccc(F)cc3)c(=O)[nH]2)CC(C)O1 (stereo unspecified),i,-0.43
CC(=O)c1ccc(NC(=O)C(C)N(C)CC(=O)Nc2cccc(F)c2)cc1 (stereo unspecified),i,-0.01
CCCOC(=O)c1ccc(NC(=O)C2C3C=CC(O3)C2C(=O)O)cc1 (stereo unspecified),i,0.73
Cc1cccc(C(=O)Nc2ccc(C(=O)N/N=C/c3cccnc3)cc2)c1,i,0.46
CCn1cc(C(=O)NC2CCCCC2)c(=O)c2ccc(C)nc21,i,0.85
CCc1ccc(NCc2ccc(OC)c(Cn3ccnc3)c2)cc1,i,2.6
CCCCc1nc2sc3c(c2c(=O)[nH]1)CC(C)(C)OC3,i,0.95
N#C/C(=C/c1cc(Br)cs1)C(=O)NCC1CCCO1 (stereo unspecified),i,0.66
CCOC(=O)N1CCC(N(CCOC)C(=O)Nc2ccc(C)c(C)c2)CC1,-7.8*,-1.8*
O=C(c1cc2ccccc2o1)N(Cc1nnc(-c2ccccc2Cl)o1)C1CC1,i,-2.4

Single records, from the list above. Order of screens: KCNQ2 block | KCNQ2 block baseline
CCn1cc(C(=O)NC2CCCCC2)c(=O)c2ccc(C)nc21 is listed with i | 0.85
C[C@H]1CCC[C@]2(C)C[C@H]3OC(=O)C(CN4CCCCCC4)[C@H]3C=C12 (stereo partly specified) is listed with i | 0.7
CCN(CC)c1ccc(C2C3CCCCC3(O)CCN2CC(=O)Nc2ccccc2)cc1 (stereo unspecified) is listed with i | -1.8
Cc1cccc(C(=O)Nc2ccc(C(=O)N/N=C/c3cccnc3)cc2)c1 is listed with i | 0.46
CCN(CC)CC(O)Cn1c(C)c(-c2ccccc2)c2cc([N+](=O)[O-])ccc21 (stereo unspecified) is listed with i | 0.98

Molecules from the list above containing fluorine:
Compound,KCNQ2 block,KCNQ2 block baseline
O=C1[C@H]2[C@@H](c3ccc(F)cc3)N3C(=O)N(c4cccc(F)c4)C(=O)[C@@]3(Cc3ccccc3)[C@H]2C(=O)N1C1CCCCC1,i,0.03
CCOC(=O)c1cn(CC#N)c2cc(F)c(F)cc2c1=O,i,0.26
Oc1ccc(/C=N/Nc2nc(-c3ccc(Cl)cc3)cc(C(F)(F)F)n2)cc1,i,-1
CC1CN(c2cc(=O)n(Cc3ccc(F)cc3)c(=O)[nH]2)CC(C)O1 (stereo unspecified),i,-0.43
CC(=O)c1ccc(NC(=O)C(C)N(C)CC(=O)Nc2cccc(F)c2)cc1 (stereo unspecified),i,-0.01

Next part
Compound,KCNQ2 block,KCNQ2 block baseline
CSc1nc2ccc(NC(=O)C3=NN(c4ccccc4)C(=O)CC3)cc2s1,i,0.02
CC(=O)N1c2ccc(S(=O)(=O)NCC3CCC(C(=O)N4CCCCC4)CC3)cc2CC1C (stereo unspecified),i,-0.2
COc1ccccc1C(=O)NC(=S)Nc1ccc(N2CCN(C(=O)c3ccco3)CC2)cc1,i,0.26
CC(NCc1ccc(OCC(N)=O)cc1)C12CC3CC(CC(C3)C1)C2 (stereo unspecified),i,0.46
O=C(C/C=N/OCc1c(Cl)cccc1Cl)c1cnc(-c2ccccc2)s1,i,4.9
COc1ccc(CCNC(=O)c2ccc(CNS(=O)(=O)c3ccc(C(C)(C)C)cc3)cc2)cc1OC,i,-0.58
COc1ccc(C[C@H]2CN3C(=NC[C@@H]3Cc3ccc(O)cc3)N2C[C@H](C)NC(=O)CCC2CCCCC2)cc1,i,1.7
Cc1ccc(N(C(=O)c2snc(C(N)=O)c2N)C(C(=O)NC2CCCC2)c2ccc(C)o2)cc1 (stereo unspecified),i,-0.56
CCCCc1nnc(NC(=O)CCSc2ccccc2)s1,i,-1.9
Cc1cccc(OC(C)C(=O)N(Cc2cccs2)C2CCS(=O)(=O)C2)c1C (stereo unspecified),i,0.44
CCOc1ccc(/C=N/NC(=O)c2cccc3ccccc23)c(OCC)c1,i,0.65
CCN(CC)S(=O)(=O)c1ccc2c(c1)N(CC(=O)NCc1ccco1)C(=O)CO2,i,-0.86
NS(=O)(=O)c1ccc(CCNC/C=C/c2ccccc2)cc1,i,-0.07
COc1ccc(Nc2nc(C(=O)NCCCN3CCOCC3)cs2)cc1,i,-1.2
O=C(c1ccco1)N1CCN(C(c2ccc(F)cc2)c2nnnn2CC2CCCO2)CC1 (stereo unspecified),i,-0.51
Cc1ccc(S(=O)(=O)c2ccc(Cl)cc2)cc1S(N)(=O)=O,i,0.76
CCn1c(SCC(=O)N2CCN(c3ccccc3F)CC2)nnc1-c1ccoc1C,i,-2.2
Cc1cccc(-c2cc3nc(C)cc(NCCCn4ccnc4)n3n2)c1,i,5.3
Cc1ccc2nc(N3C(=O)C(O)=C(C(=O)c4ccc(C)o4)C3c3cccc(O)c3)sc2c1 (stereo unspecified),i,0.68
O=C(O)c1cccc(C(=O)O)n1,i,0.69
CCOC(=O)C1CCCN(C(=O)c2ccc3oc(Cc4ccccc4)nc3c2)C1 (stereo unspecified),i,-1.1
CC(=O)Nc1nc(C)cs1,i,-0.84
O=[N+]([O-])c1ccc(OCc2n[nH]c(=S)n2-c2ccccc2)cc1,i,0.54
COc1ccc(O)c(/C=N/c2sc(C)c(C)c2C#N)c1,i,0.69
CCc1noc(C)c1C(=O)N1CCC(CCC(=O)Nc2cccc(C)c2)CC1,i,-0.15
CCc1ccnc(NS(=O)(=O)c2ccc3c(c2)OCCO3)c1,i,-0.06
Cc1cc(-c2n[nH]c(=S)n2CC(C)C)cs1,i,-0.54
COc1ccc(NC(=O)CCCn2c(=O)c3sccc3n(Cc3ccc(C)cc3)c2=O)cc1,i,0.01
CCOC(=O)C1=C(C)NC(=O)NC1c1ccsc1 (stereo unspecified),i,0.58
C=C(C)CNC(=S)N/N=C1\CCCCc2ccccc21,i,-1.5
COc1cccc(-n2cnc3scc(-c4cccs4)c3c2=O)c1,i,-0.01
CCCS(=O)(=O)N1CCC(C(=O)NC2CCCCC2C)CC1 (stereo unspecified),i,-1.4
CC1(C)Cc2nc(NCCN3CCOCC3)c(C#N)cc2CO1,i,-0.47
CCOC(=O)C1=NNC(C(=O)c2ccc(C)cc2)C1c1ccc(C)cc1 (stereo unspecified),i,-0.64
CC1Cc2ccccc2N1C(=O)CNc1cccc(S(=O)(=O)N2CCCC2)c1 (stereo unspecified),i,-1.3
Cc1cc(CNC(=O)COc2ccc(F)cc2)c2ccccc2n1,i,1.2
Cc1ccc2c(c1)C(O)(CC(=O)c1ccc3c(c1)OCO3)C(=O)N2 (stereo unspecified),i,0.05
CSCCC(NC(=O)c1ccc(Cl)c([N+](=O)[O-])c1)C(=O)N1CCN(C/C=C/c2ccccc2)CC1 (stereo unspecified),i,-0.09
COCCn1c(SC(C)C(=O)NCC2CCCO2)nc2sc3c(c2c1=O)CCC3 (stereo unspecified),i,-0.9
COc1ccc(CN2CCN(CCc3ccccc3)C(CCO)C2)c(Cl)c1OC (stereo unspecified),i,0.95
O=C(c1ccc(CS(=O)(=O)c2ccc(Br)cc2)o1)N1CCCC1,i,-0.81
CC[n+]1c(/C=C/c2ccc(N(C)C)cc2)ccc2ccccc21,-9.3*,-8.8*
CCN(CC)S(=O)(=O)c1ccc2c(c1)N(CC(=O)N(CCc1ccncc1)C(C)C)C(=O)CO2,i,0.75
COc1ccccc1NC(=O)c1ccc(NC(=O)CN2CCCC2)cc1,i,-1.2
COc1ccc(-c2ccc(-c3noc(-c4ccccc4F)n3)c(OC)n2)cc1,i,-0.83
CC1(C)CSC(=NCCc2ccccc2)N1,i,1.4
COc1cccc(C(O)c2nccn2Cc2ccccc2)c1OC (stereo unspecified),i,-0.97
Clc1ccc(C(c2nnnn2C2CCCC2)N2CCN(c3nc4ccccc4s3)CC2)cc1 (stereo unspecified),i,-0.31
Cn1cc(/C=C/C(=O)N2CCCC(C(=O)c3cccc4ccccc34)C2)cn1 (stereo unspecified),i,-0.06
CCOc1ccccc1NC(=S)N1CCN(c2nc(-c3cccc(OC)c3)cs2)CC1,i,-0.01

(continued)
Compound,KCNQ2 block,KCNQ2 block baseline
CC(=O)OCC(OC(C)=O)C(OC(C)=O)C(OC(C)=O)C(=O)Nc1cccc(C)c1 (stereo unspecified),i,3.8
Cc1ccc(S(=O)(=O)Nc2c(C(=O)O)[nH]c3ccccc23)cc1C,i,-3.2
Cc1cc(C)cc(NC(=O)CSc2nc3ccccc3nc2N2CCCC2)c1,i,0.35
CC1CCCN(C(=O)COC(=O)CNS(=O)(=O)c2ccc3ccccc3c2)C1 (stereo unspecified),i,-0.12
N#C/C(=C(/O)COC(=O)c1cccnc1Cl)c1nc2ccccc2[nH]1,i,0.29
Fc1ccc(-c2nc(-c3cccs3)[nH]c2-c2ccc(F)cc2)cc1,i,-1.3
COc1nc(NC2CCCCC2)nc(NC(C)(C)C)n1,i,-0.66
Cc1cc(Cl)ccc1OC(C)C(=O)Nc1cnn(CCCC(=O)O)c1 (stereo unspecified),i,-0.35
COc1ccc([N+](=O)[O-])cc1N(CC(O)CN(CC(C)C)CC(C)C)S(=O)(=O)c1ccccc1 (stereo unspecified),i,1.5
Cc1cc(C)nc(NC(=O)Cc2cccs2)n1,i,1.3
C=CCNc1oc(-c2ccc(OC)cc2)nc1C#N,i,-1.6
COc1ccc(Cn2c(-c3ccco3)nc3oc4cc(OC)ccc4c(=O)c3c2=O)cc1,i,0.32
Cc1ccc(NS(=O)(=O)c2ccc(OCC(=O)NCC3CCCO3)cc2)cc1 (stereo unspecified),i,-0.54
OC(c1ccccn1)C1CCN(Cc2nc(C(c3ccccc3)c3ccccc3)no2)CC1 (stereo unspecified),i,-0.24
COc1cccc(-c2nc(CS(=O)(=O)CC(=O)NCCc3ccc(OC)cc3OC)c(C)o2)c1,i,0.62
Cc1cnc(SCc2ccc(Cl)cc2Cl)[nH]c1=O,i,0.02
CCOC(=O)Cc1csc(NC(=O)CSc2nnc(C(C)C)n2CC)n1,i,3.4
CCN1CCN(C(=O)c2ccc3c(c2)N(Cc2ccc(C)cc2)CCS3)CC1,i,0.03
O=C(NCCCn1cccn1)C1CCC(=O)N(CCc2ccccc2)C1 (stereo unspecified),i,0.36
CCOC(=O)N1CCN(Cc2c(F)cccc2Cl)CC1,i,0.61
N#CC1(Nc2ccccc2)C(=O)Nc2ccccc21 (stereo unspecified),i,0.75
